# Rango complex inh – qHTS Assay for Inhibitors of Rango (Ran-regulated importin-beta cargo) - Importin beta complex formation | Potency, µM (top dose mostly 92.2 µM), inactives show at the top dose inhibition of complex formation | AID 540263, 2011 | Rango CFP/YFP FRET sensor + importin beta, 45 min | 340,000 compounds, 0.031% hits | Importin subunit beta-1 (Homo sapiens), Q14974; active = rising FRET ratio curve, often small or poorly fitted; inconclusive = mostly compound fluorescence or quenching in the first reads; inactive = flat curves in all reads;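 also: potency is read from the fitted curve at half-maximal effect; 0% = DMSO wells and 100% = buffer wells lacking importin beta; nearly all actives have a fitted effect of over 15% in size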
# Target sequence (Q14974 whole entry, looked up): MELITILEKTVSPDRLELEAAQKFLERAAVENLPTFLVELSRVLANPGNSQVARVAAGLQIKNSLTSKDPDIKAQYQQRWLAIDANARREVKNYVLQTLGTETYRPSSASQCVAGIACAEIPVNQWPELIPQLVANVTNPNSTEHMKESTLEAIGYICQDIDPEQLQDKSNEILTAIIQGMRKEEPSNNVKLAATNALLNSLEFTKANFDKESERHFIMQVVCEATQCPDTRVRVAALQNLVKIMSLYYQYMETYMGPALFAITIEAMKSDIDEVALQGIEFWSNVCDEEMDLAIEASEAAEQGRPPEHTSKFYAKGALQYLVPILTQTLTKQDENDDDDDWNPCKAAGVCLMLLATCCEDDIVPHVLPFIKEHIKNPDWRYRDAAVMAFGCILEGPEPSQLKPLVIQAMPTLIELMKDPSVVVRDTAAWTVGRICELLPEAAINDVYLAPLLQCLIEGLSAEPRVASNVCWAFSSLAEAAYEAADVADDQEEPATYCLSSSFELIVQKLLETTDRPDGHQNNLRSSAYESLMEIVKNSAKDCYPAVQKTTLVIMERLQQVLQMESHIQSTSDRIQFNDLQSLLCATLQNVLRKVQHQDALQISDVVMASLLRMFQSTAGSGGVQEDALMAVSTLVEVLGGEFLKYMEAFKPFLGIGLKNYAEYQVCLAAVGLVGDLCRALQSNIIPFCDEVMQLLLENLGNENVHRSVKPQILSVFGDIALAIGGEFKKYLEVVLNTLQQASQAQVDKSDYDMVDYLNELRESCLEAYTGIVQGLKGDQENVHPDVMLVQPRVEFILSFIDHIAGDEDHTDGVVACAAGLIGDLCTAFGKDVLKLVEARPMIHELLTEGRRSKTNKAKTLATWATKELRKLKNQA
#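 FRET biosensor Rango (snurportin 1 IBB between N-terminal EYFP and C-terminal Cerulean), 50 nM in PBS/1 mM DTT/0.02% Tween-20/0.1% BSA, preincubated 5 min RT with compound; 0.125 microM importin beta added, 45 min RT, CFP/YFP FRET ratio read.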
# Rango release inh – qHTS Assay for Inhibitors of RanGTP induced Rango (Ran-regulated importin-beta cargo) - Importin beta complex dissociation; Snurportin-1 (Homo sapiens) + GTP-binding nuclear protein Ran (Homo sapiens) + Importin …; AID 540253, 2011; Biochemical FRET Rango-importin beta, RanGTP-induced dissociation; 340,000 compounds, 0.071% hits; Potency, µM (titrated, usually from 46.1 µM), inactives show at the highest dose activity change, negative = inhibition; active means falling FRET ratio curve, often poorly fitted, with flat reads before Ran was added; inconclusive means other falling curves, or compound fluorescence or quenching; inactive means flat or rising ratio curve;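 also: potency is read from the fitted curve at half-maximal effect; % of control where 0% means no effect; nearly all actives have a fitted effect of over 45% in size; -100% = wells without RanGTP and RCC1; the record marks most hits as doubtful in a second field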
#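 Rango/importin beta premix (0.1/0.25 uM final), PBS + 1 mM DTT + 0.02% Tween-20 + 0.1% BSA; cpd 5 min RT; FRET pre-read; + RanGTP-RCC1 (0.6 uM Ran, 2 mM GTP, 0.2 uM RCC1); 45 min RT; FRET post-read, ex 430, em 486/530 nm.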
# GLA inh pH 4.5 – qHTS Assay for Inhibitors of Human alpha-Galactosidase at pH 4.5; Alpha-galactosidase A (Homo sapiens), P06280; purified enzyme, 4-MU-alpha-Gal fluorescence, pH 4.5; activity change, negative = inhibition, % at 105 µM; 230,000 tested, under 10 active; AID 1467, 2008; inconclusive = small, poorly fitted or top-dose-only inhibition, or a rising curve; inactive = flat fitted curve, though single readings scatter; no compound was filed as active;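 also: 0% = full activity with enzyme and -100% = basal without enzyme; dose as in the result columns while the protocol names 77 µM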
# miR-21 reporter – qHTS Assay for Modulators of miRNAs and/orActivators of miR-21. HeLa miR-21 FLuc reporter, luciferase, 48 h. Potency, µM (titrated, usually from 38.3 µM), inactives show top-dose reporter change, positive = more light. 340,000 tested, under 10 active; active = well fitted rising curve with a large enough effect; inconclusive = small, poorly fitted or top-dose-only effect; inactive = no such curve, though single readings can be large or run the other way;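 also: % of control where 0% means no effect; miR-21 action dims this reporter so a rising signal means less miR-21 action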
#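 HeLa cells endogenously expressing miR-21, stably carrying CMV-driven firefly luciferase with a downstream miR-21 binding site, 2000 cells/well. Titrations up to approximately 40 uM, 48 hours; luciferase luminescence read.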
# * marks the source's active call; other numbers are inactive results; ? = inconclusive; / = no result given; & = joins results of further samples. This is a subset; rates above refer to the full screens.
# Values run as follows: Rango complex inh	Rango release inh	GLA inh pH 4.5	miR-21 reporter
- COc1ccc(-c2noc(C3CCCN(C(=O)c4ccc(C)cc4)C3)n2)cc1 (configuration not stated)
 : -0.9%	15%	-9	-14%
- CN(CC(=O)Nc1ccccc1Cl)C1CCS(=O)(=O)C1 (configuration not stated)
 : 1.7%	-13%	/	/
- Cc1nc(C(=O)Nc2cccc(Cl)c2)nn1-c1cc(OC(C)C)c(Cl)cc1Cl
 : 0.1%	11%	-5	1%
- CN(C)[C@@H](CO)c1nnc([C@H](CC(=O)O)NC(=O)C2CCNCC2)o1
 : 3.1%	8%	-13	-1%
- CC1CC=CCC1(CO)CO (configuration not stated)
 : -2.1%	3%	/	/
- O=C(CSc1nc2nc[nH]c2c(=O)[nH]1)NC1CCCCC1
 : 4.9%	-9%	1	-6%
- Cc1cc(NC(=O)c2ccc(NC(=O)C(C)Oc3ccccc3)cc2)no1 (configuration not stated)
 : ?	-17%	3	-2%
- Cc1cccc(CC2CC(=O)N(CCc3ccc4c(c3)OCO4)C2=O)c1 (configuration not stated)
 : 5.9%	-11%	3	-6%
- CCOC(=O)C1(Cc2cccc(F)c2)CCN(C(=O)C2CCOCC2)CC1
 : -0.2%	-7%	2	-2%
- O=C(Cn1cc2c(n1)CCCCC2)Nc1c(F)c(F)cc(F)c1F
 : -2.6%	12%	0	-5%
- O=C(c1ccccn1)N1CCN(C(=O)c2ccccn2)CC1
 : 1.8%	2%	-10	3%
- COc1ccccc1CNC(=O)Cn1ccsc1=N
 : ?	4%	/	-3%
- COc1cccc(/C=C2\Oc3ccc(O)cc3C2=O)c1O
 : ?	?	/	26%
- Cc1cccc(N2C(=O)C(O)=C(C(=O)c3cccs3)C2c2ccc(Cl)cc2)n1 (configuration not stated)
 : ?	-8%	-2	1%
- Cc1cc(Br)ccc1NC(=O)CN1C(=O)C2CC=CCC2C1=O (configuration not stated)
 : 12%	-1%	/	/
- CC(=O)Nc1ccc(S(=O)(=O)NNC(=O)c2ccc3c(c2)OCO3)cc1
 : -0.7%	3%	/	-1%
- OCC[C@H]1C[C@H](O)[C@@H](O)[C@]2(CCCc3ccccc3O2)O1
 : 0.0%	0%	/	/
- Nc1c(N(CCO)C(=O)COc2ccc(Cl)cc2)c(=O)[nH]c(=O)n1Cc1ccccc1
 : -0.3%	-21%	6	1%
- CCOCCCNC(=O)c1ccc(OC)c(OC2CCN(C(C)C)CC2)c1
 : -0.1%	17%	/	4%
- Cc1cc(C)c(NC(=O)CSc2nc3ccncc3[nH]2)c(C)c1
 : 1.1%	-4%	/	0%&28%

# Values run as follows: Rango complex inh	Rango release inh	GLA inh pH 4.5	miR-21 reporter
- Cc1cccc(C)c1OCc1cc(C(=O)N2CCC(c3ccncc3)CC2)no1
 : 5.1%	18%	/	-14%
- O=C(COC(=O)CCc1nc2ccccc2s1)Nc1ccc(Cl)cn1
 : -6.7%	5%	-4	-2%
- COc1ccc(OC)c(CN2CCN(C(=O)CN3C(=O)NC4(CCCC4)C3=O)CC2)c1
 : 2.6%	-1%	/	/
- O=C(Nc1ccccc1)c1ccc(-c2ccc(Br)cc2)o1
 : -1.4%	5%	-8	-48%
- C=CCN(C(=O)c1oc2c(Cl)cc(C)cc2c1C)C1CCS(=O)(=O)C1 (configuration not stated)
 : 1.4%	0%	/	-94%
- CN1CCN(C2CC(=O)N(CCc3ccccc3)C2=O)CC1 (configuration not stated)
 : 0.2%	-1%	0	1%
- CC(=O)Nc1cccc(C(=O)NNC(=O)c2ccc(-n3cnnn3)cc2)c1
 : 3.4%	10%	/	/
- O=C(COc1ccc(S(=O)(=O)N2CCOCC2)cc1)Nc1ccc(Cl)c(C(F)(F)F)c1
 : 0.5%	9%	-10	28%
- CNC(=O)CSc1nnc(-c2ccco2)n1-c1cccc(OC)c1
 : 2.2%	2%	/	-2%
- CC1Cc2ccccc2N1C(=O)c1cnc2sccn2c1=O (configuration not stated)
 : 0.7%	-1%	-5	-1%
- CCn1ccc(C(=O)Nc2ccc(Cl)cn2)n1
 : 4.4%	0%	7	-42%
- CC(=O)Cn1c2ccccc2n2nc(CCC(=O)O)c(=O)nc12
 : -2.0%	-7%	10	-2%
- Cc1ccsc1/C=N/NC(=O)CNC(=O)c1ccc(S(=O)(=O)N(C)C)cc1
 : -1.4%	13%	13	-1%
- CCCNC(=O)c1ccc(C)c(NC(=O)C2=C(C)OCCS2)c1
 : 4.3%	1%	/	2%
- Cc1nc2cc(NC(=O)NC3CC3)ccc2n1C
 : 6.7%	-6%	-19	-23%
- CC(C)C(OC(=O)CN1C(=O)COc2ccccc21)C(=O)NC1CCCC1 (configuration not stated)
 : 1.5%	-9%	-10	0%
- COc1cccc(N=C2SC(C(=O)Nc3ccccc3F)CC(=O)N2C)c1 (configuration not stated)
 : 1.8%	9%	-5	-2%
- CN(CCNC(=O)C1CC(=O)N(C2CCCC2)C1)Cc1ccccc1 (configuration not stated)
 : -0.9%	10%	/	/
- C=CCOc1ccc(/C=C/C(=O)OCC(=O)NCCC2=CCCCC2)cc1
 : -0.2%	1%	/	-3%
- Cc1cccc2cc(C(c3nnnn3CC3CCCO3)N3CCc4ccccc4C3)c(=O)[nH]c12 (configuration not stated)
 : ?	-11%	2	-8%

# Values run as follows: Rango complex inh	Rango release inh	GLA inh pH 4.5	miR-21 reporter
- O=C(OCc1ccccc1)C1CCCN1C(=O)c1cccs1 (configuration not stated)
 : 5.8%	18%	3	0%
- CC1CCCC(NC(=O)c2ccc3c(c2)OCCO3)C1C (configuration not stated)
 : 6.3%	1%	/	/
- CCN(CC)CCOC(=O)c1c(C)oc2ccc(O)cc12
 : 5.7%	16%	8	-16%
- CCNc1nc(NCC)n2c(SCC(=O)Nc3ccc(C)c(C)c3)nnc2n1
 : 2.2%	-11%	/	/
- COc1ccccc1NC(=O)c1cccc(S(=O)(=O)N2CCN(c3ccccc3)CC2)c1
 : -0.7%	39%	/	/
- O=C(NCCc1ccccc1)C1CCC(Cn2c(=O)c3ccccc3n(Cc3cccc(Cl)c3)c2=O)CC1 (configuration not stated)
 : 0.9%	5%	/	/
- CC1=C(C(=O)OCc2ccccc2)C(c2ccc(C)o2)C2=C(CCCC2=O)N1 (configuration not stated)
 : 0.3%	-25%	-6	0%
- O=C(Nc1ccnn1C1CCNCC1)c1ccc2c(c1)OCO2
 : -0.3%	2%	/	/
- Cc1nnc(Nc2ccc(S(N)(=O)=O)cc2)c2ccccc12
 : ?	-7%	/	-14%
- COc1ccccc1/C=N/NC(=O)C(C)Cn1cnc2ccccc21 (configuration not stated)
 : -0.5%	-12%	0	-2%
- CCOC(=O)C1=C(COC(=O)Cc2ccccc2F)NC(=O)NC1C (configuration not stated)
 : -1.3%	-3%	/	/
- O=C(O)COCC(=O)NCc1nc(-c2ccc(C(F)(F)F)cc2)no1
 : -0.9%	2%	1	-5%
- C=CCn1c(=O)n(C)c2c(=O)n(C)c(=O)n(C)c21
 : 0.3%	8%	/	/
- O=C(c1ccccc1F)N1CCc2ccccc21
 : -0.7%	-14%	7	-6%
- Cc1ccc(NC(=O)COc2ccc(-n3cnnn3)cc2)cc1C
 : 2.8%	-10%	-4	-21%
- O=C(Nc1nnc(SCc2ccc(F)cc2)s1)C1=COCCO1
 : -1.0%	-2%	/	/
- CCOC(=O)c1cc(-c2ccc(C)cc2)n(CC(=O)NCc2ccco2)c1C
 : -4.0%	-12%	1	-1%
- CCn1c(=O)c(=O)[nH]c2cc(C(=O)Nc3ccc(S(=O)(=O)N4CCCC4)cc3)ccc21
 : 3.5%	25%	-11	-4%
- c1cncc(C2Nc3ccccc3-c3nc4ccccc4n32)c1 (configuration not stated)
 : -4.7%	-15%	11	-9%
- COc1ccc(/C(C#N)=C/c2ccccn2)cc1
 : 1.9%	-15%	8	-43%

# Values run as follows: Rango complex inh	Rango release inh	GLA inh pH 4.5	miR-21 reporter
- COC(=O)[C@@H]1C[C@H]1[C@@H](NS(=O)(=O)c1ccccc1)c1ccccc1
 : ?	?	7&-2	-11%
- Cc1noc(C)c1COc1ccc(C(=O)O)cc1
 : 0.9%	0%	-2	4%
- COc1ccc(CCNC(=O)c2cc(-c3ccco3)nc3ccccc23)cc1
 : -2.1%	1%	/	/
- COc1c(-c2ccc(O)cc2)oc2cc(O)cc(O)c2c1=O
 : 3.3%	2%	-8	-21%
- COc1cccc(-c2cc(C(=O)N3CCN(S(=O)(=O)c4ccccc4)CC3)[nH]n2)c1
 : 5.9%	10%	/	8%
- COc1ccccc1OCCNC(=O)c1c(-c2ccccc2Cl)noc1C
 : -0.9%	3%	/	-25%
- COc1ccc(C(=O)NN=C2CCCC2)cc1
 : 1.0%	11%	/	-22%
- CCN(CC)S(=O)(=O)c1ccc2oc(C(=O)N3CCc4ccccc4C3)c(C)c2c1
 : 1.5%	10%	-12	21%
- O=C(CN(C(=O)c1ccccc1Cl)C1CCCCC1)Nc1ccc(Cl)c([N+](=O)[O-])c1
 : 3.4%	-11%	2	9%
- O=[N+]([O-])c1cc(-c2nnc(N3CCOCC3)c3ccccc23)ccc1N1CCOCC1
 : 1.2%	-7%	-3	2%
- O=C(Nc1nnc(SCc2ccc(F)cc2)s1)C1Cc2ccccc2CN1C(=O)c1ccco1 (configuration not stated)
 : -1.9%	1%	-2	-12%
- COc1cccc(-c2cc(C(=O)Nc3c(C)nn(Cc4ccccc4)c3C)no2)c1
 : -0.3%	-7%	-12	6%
- CC(C)C1NC(=S)N(Cc2ccccc2)C1=O (configuration not stated)
 : 1.6%	-1%	4	3%
- Cc1nc(NC(=O)c2ccco2)sc1C(=O)O
 : 5.9%	-14%	/	-2%
- CCCCCn1c(SCCOCC)nc2c1c(=O)[nH]c(=O)n2C
 : -0.7%	7%	-23	-11%
- COc1cc(C)c(Br)cc1S(=O)(=O)NCc1ccccc1
 : 0.8%	-4%	1	-11%
- CS(=O)(=O)N1CC2CCCN2c2cc(C(F)(F)F)ccc21 (configuration not stated)
 : 0.3%	-7%	0	-12%
- Cc1c(C(=O)N(C)C(C)c2ccncn2)oc2c(F)cccc12 (configuration not stated)
 : -3.9%	-8%	/	-14%
- CC(C)(C)c1ccc2c(c1)N(CC(=O)N1CCOCC1)C(=O)CO2
 : -3.2%	-13%	/	-3%
- O=C(CSc1nc(Nc2ccccc2)nc(N2CCOCC2)n1)Nc1cccc([N+](=O)[O-])c1
 : 0.2%	-6%	/	5%

# Values run as follows: Rango complex inh	Rango release inh	GLA inh pH 4.5	miR-21 reporter
- Cc1cccc(-c2oc3ccc(-c4ccc5c(c4)OCO5)cc3c2C#Cc2cncn2C)c1
 : -0.6%	-1%	/	/
- O=C1/C(=C/c2ccsc2)N2CCC1CC2
 : 0.0%	-4%	7	0%
- CCC(=O)N=c1sc2ccccc2n1-c1ccccc1
 : -0.2%	2%	3	0%
- Cc1cccc(C)c1OCC(O)CN1CCCCC1 (configuration not stated)
 : 0.1%	8%	-6	-2%
- CCOC(=O)CNC(=O)CN1CCCN(S(=O)(=O)c2ccc(Br)s2)CC1
 : -2.2%	-1%	-30	0%
- O=C(CCC1CC(=O)Nc2ccccc21)NCc1ccc(F)cc1 (configuration not stated)
 : 2.3%	-10%	-6	-4%
- O=C(CCCCC(=O)NN=Cc1ccc(Cl)cc1)NN=Cc1ccc(Cl)cc1
 : 1.9%	12%	/	/
- O=C(NCc1ccco1)C12CC3CC(C1)CC(C(=O)NCc1ccco1)(C3)C2
 : -1.3%	2%	4	-5%
- CC(C)(CC(=O)O)CC(=O)N1CCN(c2nc3cc(Cl)ccc3s2)CC1
 : 2.0%	10%	/	-37%
- CCCCNC(=O)Cc1c(OC)ccc2cc(Br)ccc12
 : -1.3%	1%	-8	3%

# Assay outcomes: PubChem BioAssay, National Center for Advancing Translational Sciences (NCATS)
